rRNA inh HTS = reduced GFP signal of wild-type E. coli, primary screen, bacterial rRNA inhibitor project, GFP/RFP fluorescence, OD600, single point; E. coli WT GFP vs humanized-ribosome RFP mutants, 24 h; active compounds read low; DMSO median 0, no signal -100; AID 720706, 2013; GFP signal change (wild-type ribosome), % (no concentration beside the values); 1.6% of 350,000 active;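 active = significant combined selectivity score with lowered wild-type GFP, culture density cut under 30%, mutant RFP and density less affected; inactive = any of these conditions unmet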; also: one replicate is shown; some compounds called inactive have numbers as strong as hits
rRNA inh HTS OD600 = second read-out of rRNA inh HTS, no call of its own (marks repeat the call); OD600 change, %; measured here: OD600 growth;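 optical density of the mix in the first replicate; 0 = DMSO median and -100 = no signal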
rRNA inh HTS RFP = further read-out of rRNA inh HTS, marked with its call; RFP signal change, %; measured here: RFP humanized mutant strains;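 first replicate; 0 = DMSO median and -100 = no signal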
* = called active by the depositor; & = joins results of further samples.

rRNA inh HTS	rRNA inh HTS OD600	rRNA inh HTS RFP	SMILES
-5	10	1.1	CN(C)C(=O)c1cccc(-c2ccccc2[C@@H]2[C@@H](C#N)N(C(=O)C3CC3)[C@H]2CO)c1
-1	3	-2.0	CNC[C@@H]1Oc2ccc(NC(=O)C3CCCCC3)cc2C(=O)N([C@H](C)CO)C[C@@H]1C
-2	0	-0.9	COc1ccc(NC(=O)N(C)C[C@@H]2Oc3ncc(-c4ccc(C#N)cc4)cc3C(=O)N([C@@H](C)CO)C[C@H]2C)cc1
-1	-2	0.6	C[C@@H]1CN([C@H](C)CO)C(=O)c2cc(NC(=O)Nc3cccc4ccccc34)ccc2O[C@@H](C)CCCCO[C@H]1CN(C)C(=O)Nc1ccc(C(F)(F)F)cc1
13	16	2.0	C[C@@H]1COc2cccc(N3CCC[C@H]3CO)c2S(=O)(=O)N1
14	9	0.0	O=C1NC(C2CC3C=CC2C3)Nc2ccccc21 (stereo unspecified)
-1	-7	-1.9	CC(C)C#Cc1ccc([C@H]2[C@H]3CN(C(=O)NC(C)C)CCCCN3[C@H]2CO)cc1
4	11	-0.1	O=C(c1ccncc1)N1CC(=O)N2[C@H](CO)[C@H](c3ccc(/C=C/c4ccccc4)cc3)[C@@H]2C1
-5	-1	-0.4	COc1ccc(CN2C[C@@H](C)[C@H](OC)CN(C)C(=O)c3ccc(NC(=O)c4nc5ccccc5s4)cc3OC[C@@H]2C)cc1
-5	-31	10	CC(C)CC#Cc1ccc2c(c1)O[C@H](CN(C)Cc1ccncc1)[C@H](C)CN([C@@H](C)CO)S2(=O)=O
-8	-22	-6.2	Cc1[nH]ncc1Nc1c(C(C)C)cccc1C(C)C
-3	-4	0.8	C[C@H](CO)N1C[C@H](C)[C@@H](CN(C)S(=O)(=O)c2ccccc2)OCCCC[C@H](C)Oc2ccc(NC(=O)c3ccccc3)cc2C1=O
22	5	-1.2	Cc1ccccc1S(=O)(=O)NC(=O)C1(C)CCN1C(=O)CC1CCCC1 (stereo unspecified)
-16	-27	-4.7	N#Cc1ccc(-c2ccc3c(c2)[C@H]2[C@H](CCN2S(=O)(=O)c2cccc(F)c2)[C@H](CO)N3)cc1
9	11	3.0	C=C(C)C(=O)Nc1ccc2nn(-c3ccccc3O)nc2c1
2	36	3.8	O=C(c1ccoc1)N1CCN(c2cc(-c3ccccc3)nc3cc(-c4ccccc4)nn23)CC1
4	11	4.1	COC(=O)C[C@H]1C[C@H]2c3cc(NC(=O)Cc4ccncc4)ccc3O[C@H]2[C@H](CO)O1
-3	3	-2.5	C[C@H](CO)N1C[C@H](C)[C@@H](CN(C)Cc2ccc(C(F)(F)F)cc2)Oc2ccc(NC(=O)CCN3CCOCC3)cc2C1=O
-6	-6	0.3	C[C@@H]1CCCCO[C@@H](CN(C)C(=O)Nc2ccc(F)cc2)[C@H](C)CN([C@H](C)CO)C(=O)c2cc(NC(=O)c3ccccc3)ccc2O1
3	0	-1.2	CC(=O)N1[C@H](CO)[C@H](c2ccccc2)[C@H]1CNC(=O)CN1CCOCC1
3	2	-0.3	Cc1ccc(S(=O)(=O)Nc2cccc3c2O[C@@H](CN(C)Cc2ccc(-c4ccccc4)cc2)[C@H](C)CN([C@H](C)CO)C3=O)cc1
-3	-4	1.8	O=C(C[C@H]1C[C@@H]2c3cc(NC(=O)CC4CC4)ccc3O[C@@H]2[C@@H](CO)O1)NCc1ccc2c(c1)OCO2
5	-3	-4.0	O=C(Nc1ccccc1F)N1CC(=O)N2[C@H](C1)[C@H](c1ccc(C#CC3CC3)cc1)[C@@H]2CO
-3	-2	-2.5	Cc1cccc(CN2[C@H](COC(=O)Nc3ccccc3)C=CS2(=O)=O)c1
-17	-6	0.8	O=C(COC(=O)Cc1ccc(Cl)cc1Cl)NCc1ccco1
-1	1	-1.6	COc1ccc(S(=O)(=O)Nc2ccc3c(c2)C(=O)N([C@H](C)CO)C[C@@H](C)[C@@H](CN(C)C(=O)NC2CCCCC2)O3)cc1
2	3	0.2	C[C@@H]1CN([C@@H](C)CO)C(=O)c2cc(C#CC3(O)CCCC3)cnc2O[C@H]1CN(C)C(=O)CC1CC1
-3	1	-3.0	CC(C)NC(=O)Nc1cccc2c1O[C@@H](CN(C)Cc1ccc(C(F)(F)F)cc1)[C@H](C)CN([C@@H](C)CO)C2=O
3	5	-0.6	CC(C)CC#Cc1cnc2c(c1)C(=O)N([C@@H](C)CO)C[C@@H](C)[C@@H](CN(C)C(=O)c1cccnc1)O2
8&-5	-36&-19	15&1.0	N#Cc1ccc(-c2ccc(C3[C@@H]4CN(C(=O)Cc5ccccc5)C[C@H]3N4)cc2)cc1 (stereo partly specified)
-4	-3	1.1	C[C@@H]1CCCCO[C@H](CN(C)S(=O)(=O)c2ccccc2)[C@H](C)CN([C@@H](C)CO)C(=O)c2cc(NC(=O)c3ccncc3)ccc2O1
-12	-6	-1.3	O=C(NCCNc1ccc([N+](=O)[O-])cc1)c1ccccc1Cl
-4	9	-5.2	C[C@@H]1CN([C@@H](C)CO)C(=O)c2c(c3ccccc3n2C)-c2ccccc2CO[C@@H]1CN(C)Cc1cccc(C(=O)O)c1
3	3	-7.2	O=C(C[C@H]1CC[C@@H]2[C@H](COC[C@@H](O)CN2Cc2cc(F)cc(F)c2)O1)NC1CCC1
8	19	-3.2	CCCCCCN1C[C@@H](O)[C@H](n2cc(COC(=O)c3ccccc3)nn2)C[C@@H]1c1ccc(OC)cc1
-3	-8	11	COc1ccc(-c2ccc([C@@H]3[C@@H](CO)N4C(=O)CN(Cc5ccc(F)cc5)C[C@H]34)cc2)cc1
19	20	0.6	NC(=O)c1ncn([C@@H]2O[C@H](C(=O)N3CCCN(Cc4ccccc4F)CC3)[C@@H](O)[C@H]2O)n1
1	1	0.3	O=C(CN1CCOCC1)N[C@H]1CC[C@H](CCn2cc(C3CC3)nn2)O[C@@H]1CO
2	-1	-4.0	CC(C)C#Cc1cnc2c(c1)C(=O)N([C@@H](C)CO)C[C@H](C)[C@H](CN(C)C(=O)Cc1ccccn1)O2
-3	-4	1.5	CCC(=O)Nc1ccc2c(c1)OC[C@H](C)N(CC1CCCCC1)C[C@@H](C)[C@H](OC)CN(C)C2=O

Arranged by formula weight (smallest number first): part of the list above.
rRNA inh HTS	rRNA inh HTS OD600	rRNA inh HTS RFP	SMILES
-12	-6	-1.3	O=C(NCCNc1ccc([N+](=O)[O-])cc1)c1ccccc1Cl
-17	-6	0.8	O=C(COC(=O)Cc1ccc(Cl)cc1Cl)NCc1ccco1
1	1	0.3	O=C(CN1CCOCC1)N[C@H]1CC[C@H](CCn2cc(C3CC3)nn2)O[C@@H]1CO
3	3	-7.2	O=C(C[C@H]1CC[C@@H]2[C@H](COC[C@@H](O)CN2Cc2cc(F)cc(F)c2)O1)NC1CCC1
-3	-8	11	COc1ccc(-c2ccc([C@@H]3[C@@H](CO)N4C(=O)CN(Cc5ccc(F)cc5)C[C@H]34)cc2)cc1
19	20	0.6	NC(=O)c1ncn([C@@H]2O[C@H](C(=O)N3CCCN(Cc4ccccc4F)CC3)[C@@H](O)[C@H]2O)n1
-3	-4	1.5	CCC(=O)Nc1ccc2c(c1)OC[C@H](C)N(CC1CCCCC1)C[C@@H](C)[C@H](OC)CN(C)C2=O
2	-1	-4.0	CC(C)C#Cc1cnc2c(c1)C(=O)N([C@@H](C)CO)C[C@H](C)[C@H](CN(C)C(=O)Cc1ccccn1)O2
2	3	0.2	C[C@@H]1CN([C@@H](C)CO)C(=O)c2cc(C#CC3(O)CCCC3)cnc2O[C@H]1CN(C)C(=O)CC1CC1
-3	1	-3.0	CC(C)NC(=O)Nc1cccc2c1O[C@@H](CN(C)Cc1ccc(C(F)(F)F)cc1)[C@H](C)CN([C@@H](C)CO)C2=O
-4	9	-5.2	C[C@@H]1CN([C@@H](C)CO)C(=O)c2c(c3ccccc3n2C)-c2ccccc2CO[C@@H]1CN(C)Cc1cccc(C(=O)O)c1
-1	1	-1.6	COc1ccc(S(=O)(=O)Nc2ccc3c(c2)C(=O)N([C@H](C)CO)C[C@@H](C)[C@@H](CN(C)C(=O)NC2CCCCC2)O3)cc1
-4	-3	1.1	C[C@@H]1CCCCO[C@H](CN(C)S(=O)(=O)c2ccccc2)[C@H](C)CN([C@@H](C)CO)C(=O)c2cc(NC(=O)c3ccncc3)ccc2O1

Continued.
rRNA inh HTS	rRNA inh HTS OD600	rRNA inh HTS RFP	SMILES
4	13	-3.1	Cc1noc(C)c1S(=O)(=O)Nc1ccc2c(c1)C(=O)N([C@H](C)CO)C[C@H](C)[C@@H](CN(C)Cc1ccc(C(=O)O)cc1)OCCCC[C@H](C)O2
-6	-3	1.2	C[C@H]1CN([C@@H](C)CO)S(=O)(=O)c2ccc(-c3ccncc3)cc2O[C@H]1CN(C)Cc1ccccc1
-60	-74	-22	Cc1cc(C(O)c2ncc(-c3ccc(Oc4ccccc4)cc3)[nH]2)ccc1F (stereo unspecified)
-2	3	0.0	CO[C@@H]1CN(C)C(=O)c2ccc(NS(C)(=O)=O)cc2OC[C@H](C)N(CC2CC2)C[C@H]1C
-9	-7	-2.7	COc1ccc(-c2ccc3c(c2)O[C@H](CN(C)C(C)=O)[C@H](C)CN([C@@H](C)CO)S3(=O)=O)cc1
2	1	0.1	C[C@H](CO)N1C[C@H](C)[C@H](CN(C)S(=O)(=O)c2ccc(F)cc2)Oc2ccc(NS(=O)(=O)c3ccc(F)cc3)cc2CC1=O
-38*	-26*	0.4*	CN1c2ccc(C#Cc3cccnc3)cc2[C@@H]2[C@@H](CCN2C(=O)c2cccc(F)c2)[C@H]1CO
1	2	0.3	O=C(C[C@@H]1C=C[C@H](NC(=O)CN2CCOCC2)[C@H](CO)O1)NC1CCCCC1
17	22	24	CC(=O)Nc1cc(-c2ccoc2)cn2c(-c3ccccc3)cnc12
1	1	-1.8	O=C(C[C@@H]1CC[C@@H](NC(=O)Cc2cccnc2)[C@@H](CO)O1)NCc1ccc2c(c1)OCO2
0	-7	0.4	C[C@H]1CN([C@@H](C)CO)C(=O)c2cc(NS(=O)(=O)c3cn(C)cn3)ccc2O[C@H]1CN(C)Cc1ccc(C(F)(F)F)cc1
1	4	-2.1	C[C@H]1CN([C@@H](C)CO)C(=O)c2cc(NS(=O)(=O)c3cccs3)ccc2O[C@H]1CN(C)Cc1ccncc1
3	6	1.1	CC(C)NC(=O)N(C)C[C@H]1Oc2ccc(NC(=O)Cc3ccccc3)cc2CC(=O)N([C@@H](C)CO)C[C@H]1C
3	4	-1.1	Cc1noc(C)c1NC(=O)N(C)C[C@@H]1Oc2ccc(NC(=O)Cn3cnnn3)cc2CC(=O)N([C@H](C)CO)C[C@@H]1C
-2	-11	-2.4	Cc1ccc(S(=O)(=O)Nc2ccc3c(c2)C(=O)N([C@@H](C)CO)C[C@@H](C)[C@H](CN(C)C(=O)Cc2ccccc2)OCCCC[C@@H](C)O3)cc1
-5	-5	5.6	CO[C@H]1CN(C)C(=O)c2cc(NC(=O)Nc3c(C)noc3C)ccc2OC[C@H](C)N(CCC(F)(F)F)C[C@@H]1C
1	1	-0.3	CCCN1C[C@H](C)[C@H](OC)CN(C)C(=O)c2ccc(NC(=O)c3ccccc3F)cc2OC[C@@H]1C
0	3	-1.1	CCCN1C[C@@H](C)[C@@H](OC)CN(C)C(=O)c2cc(NC(=O)c3ccccc3)ccc2OC[C@H]1C
-2	-3	4.6	COc1cccc(NC(=O)C[C@H]2CC[C@@H]3[C@H](COc4ccc(NS(=O)(=O)c5cccc(F)c5)cc4C(=O)N3C)O2)c1
5	8	0.8	C[C@H]1CN([C@@H](C)CO)C(=O)c2cccc(NC(=O)Nc3ccc(C(F)(F)F)cc3)c2O[C@H]1CN(C)Cc1ccc(-c2ccccc2)cc1
-3	-4	-1.7	C[C@H](CO)N1C[C@H](C)[C@H](CN(C)C(=O)Nc2cccc3ccccc23)Oc2ccc(NC(=O)Nc3ccc4c(c3)OCO4)cc2C1=O
2	5	-4.1	C[C@H](CO)N1C[C@H](C)[C@H](CN(C)Cc2ccccc2)Oc2ccc(NS(C)(=O)=O)cc2C1=O
0	12	-1.9	CC(C)C#Cc1cnc2c(c1)C(=O)N([C@@H](C)CO)C[C@H](C)[C@@H](CN(C)C(=O)c1ccccn1)O2
9	15	2.4	C[C@H](CO)N1C[C@H](C)[C@H](CN(C)Cc2ccccc2)Oc2ccc(NS(=O)(=O)c3ccc(Cl)cc3)cc2C1=O
3	5	-1.3	Cc1noc(C)c1S(=O)(=O)Nc1ccc2c(c1)C(=O)N([C@@H](C)CO)C[C@H](C)[C@H](CN(C)S(=O)(=O)c1cn(C)cn1)OCCCC[C@@H](C)O2
1	0	-1.7	O=C(Nc1ccc2c(c1)[C@H]1C[C@H](CC(=O)N3CCCCC3)O[C@@H](CO)[C@H]1O2)C1CCC1
3	14	2.1	COc1ccc(-c2ccc(C3[C@H]4CNC[C@@H]3N4S(=O)(=O)c3cn(C)cn3)cc2)cc1 (stereo partly specified)
2	5	-0.5	C[C@H]1CN([C@@H](C)CO)C(=O)Cc2cc(NS(=O)(=O)c3cn(C)cn3)ccc2O[C@@H]1CN(C)S(=O)(=O)c1ccccc1
-48	-69	3.3	COc1ccc2c3c(n(C)c2c1)[C@@H](CO)NCC31CCN(S(=O)(=O)c2cccc(C)c2)CC1
-5	-42	-0.2	C[C@@H]1CN([C@H](C)CO)C(=O)Cc2cc(NS(C)(=O)=O)ccc2O[C@H]1CN(C)Cc1ccc(Oc2ccccc2)cc1
4	-2	-1.1	O=S(=O)(c1ccccc1)N1CCN(CCOc2ccc(F)cc2)CC1
2	5	-1.7	C[C@@H]1CN([C@@H](C)CO)C(=O)c2cc(NC(=O)CCC(F)(F)F)ccc2O[C@@H](C)CCCCO[C@H]1CN(C)C(=O)CCC(F)(F)F

Assay outcomes from PubChem.

An excerpt; the hit share may differ from the screen's.
